Screening data: PubChem, Johns Hopkins Ion Channel Center
KCNQ2 pot: potentiators of rat KCNQ2 potassium channel | Potassium voltage-gated channel subfamily KQT member 2 (Rattus norvegicus), O88943 | CHO-K1 KCNQ2, FluxOR thallium flux fluorescence; active compounds read high | B-score at 10 µM | hit rate 0.54% among 310,000 | AID 2239, 2010;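 active means fluorescence ratio B-score at least 3 SD of library B-scores, with initial fluorescence B-score within 3 SD, cut at about 5.3 in these data; same plate scores as AID 2156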;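 further: B-score of peak minus minimum over baseline fluorescence ratio after K+ and Tl+ stimulus; positive B-score means potentiation of KCNQ2 with more thallium influx and brighter signal; only the inactives scoring about 0 or higher are listed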
Target sequence (O88943 whole entry, looked up): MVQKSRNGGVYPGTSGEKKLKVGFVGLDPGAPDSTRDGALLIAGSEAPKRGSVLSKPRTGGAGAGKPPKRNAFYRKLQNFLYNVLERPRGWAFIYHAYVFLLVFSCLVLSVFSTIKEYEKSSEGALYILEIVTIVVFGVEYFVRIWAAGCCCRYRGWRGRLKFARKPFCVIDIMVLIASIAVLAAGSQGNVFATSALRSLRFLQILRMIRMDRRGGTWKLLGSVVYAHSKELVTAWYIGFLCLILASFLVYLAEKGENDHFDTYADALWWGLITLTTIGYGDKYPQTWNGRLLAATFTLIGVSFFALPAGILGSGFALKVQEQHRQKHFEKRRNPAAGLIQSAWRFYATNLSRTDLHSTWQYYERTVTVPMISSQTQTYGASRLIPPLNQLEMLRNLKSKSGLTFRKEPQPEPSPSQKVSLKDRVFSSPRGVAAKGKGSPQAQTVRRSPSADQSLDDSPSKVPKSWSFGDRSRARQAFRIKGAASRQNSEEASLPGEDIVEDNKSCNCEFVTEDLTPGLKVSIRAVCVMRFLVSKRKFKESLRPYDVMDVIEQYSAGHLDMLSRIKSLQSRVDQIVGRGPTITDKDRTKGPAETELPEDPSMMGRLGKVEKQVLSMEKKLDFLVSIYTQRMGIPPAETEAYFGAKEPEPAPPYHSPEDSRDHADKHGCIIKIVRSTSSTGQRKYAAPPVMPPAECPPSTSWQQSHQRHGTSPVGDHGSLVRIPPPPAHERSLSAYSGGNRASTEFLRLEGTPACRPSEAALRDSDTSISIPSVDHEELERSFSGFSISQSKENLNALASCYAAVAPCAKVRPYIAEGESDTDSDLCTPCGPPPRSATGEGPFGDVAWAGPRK
KCNQ2 pot baseline: further read-out of KCNQ2 pot, marked with its call; B-score; compound at 10 µM; measured here: initial fluorescence intensity artifact check;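 brightness before thallium and not channel activity; 0 = typical well and far values either way flag optical interference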
An asterisk follows results filed as active. The list is partial; count on the stated rates, not on these rows.

Below each SMILES – KCNQ2 pot, KCNQ2 pot baseline
NC(=O)NC(=O)C(OC(=O)CCNS(=O)(=O)c1ccccc1)c1ccccc1 (configuration not stated)
    0.94, -2.6
Cc1cc(C)nc(SCc2ccc(Cl)cc2)n1
    0.08, -0.07
O=C(N/N=C/c1ccco1)C(O)c1ccccc1 (configuration not stated)
    2.7, -1.6
Cc1ccsc1/C=c1\sc2ncnn2c1=O
    0.93, 0.15
C=CCSc1nccc(-c2nn(-c3ccc(C)cc3)ccc2=O)n1
    0.85, -0.66
CN(C)C(CNC(=O)c1cccc(C(F)(F)F)c1)c1ccco1 (configuration not stated)
    0.45, 0.76
CCCC(=O)NCCc1nc2cc([N+](=O)[O-])ccc2n1C
    2, -0.14
NC(=O)C1CC(=O)N(c2ccc(OCc3c(Cl)cccc3Cl)cc2)C1 (configuration not stated)
    1.3, 0.51
COc1ccc(OCC(Cn2cnc3ccccc32)OC(C)=O)cc1 (configuration not stated)
    0.17, 0.78
NC1=NC(=O)C(Cc2cc(Cl)ccc2Cl)S1 (configuration not stated)
    0.95, 0.84
CC1CN(S(=O)(=O)c2cccc(C(F)(F)F)c2)C(C)N1C(=O)N1CCOCC1 (configuration not stated)
    0.39, 1.4
C=CC[C@]12C=C(OC)C(=O)C(OC)=C1O[C@@H](c1ccc3c(c1)OCO3)[C@H]2C
    0.69, 0.06
CCC(=O)N1CCN(c2nc(C)nc3sc(C)c(C)c23)CC1
    0.9, -0.84
COc1ccc(S(=O)(=O)N2CCC3(CC2)OCCN3S(=O)(=O)c2ccc(C)cc2)cc1OC
    0.69, 0.41
O=C1CCc2cc(S(=O)(=O)N3CCC(C(=O)Nc4nccs4)CC3)ccc2N1
    0.78, 1.2
CC(=O)N1C(=O)/C(=C2\SC(=S)N(NC(=O)c3ccc(O)cc3)C2=O)c2ccccc21
    1.1, 1.4
Cc1ccc(/C=N/n2c(C3CCCCC3)n[nH]c2=S)s1
    0.45, 0.02
Cc1cc(NC(=O)c2ccc(F)c(S(=O)(=O)N3CCCCC3)c2)no1
    0.03, -2.5
CC(=O)Nc1ccc(S(=O)(=O)NCCC(=O)N2CCc3ccccc32)cc1
    1, -0.62
C=CCN(C(=O)c1ccccc1)c1ccc(OC)cc1
    0.19, 2
O=C(c1ccc(F)cc1)c1c[nH]c(C(=O)NCc2ccco2)c1
    0.55, 0.02
CC(C)Oc1ccc(Cc2cnc(=S)[nH]c2N)cc1
    0.26, -0.6
O=S(=O)(c1ccc(-c2cn3ccccc3n2)cc1)N1CCOCC1
    0.01, 0.57
Cc1ccccc1C[n+]1cccc2ccccc21
    0.66, -0.05
Cc1ccc(CCNC(=O)C2CCCN(S(=O)(=O)c3cccc4nsnc34)C2)cc1 (configuration not stated)
    0.05, 3.3
CC(C)(O)CC[C@@H](O)[C@](C)(O)[C@H]1CC[C@@]2(O)C3=CC(=O)[C@@H]4C[C@@H](O)[C@@H](O)C[C@]4(C)[C@H]3CC[C@]12C
    1, 0.14
CC(=O)c1cccc(NC(=O)Nc2cccnc2)c1
    1.9, 0.01
O=C1c2ccccc2C(=O)N1CCCn1nnc(-c2ccc(N3CCOCC3)cc2)n1
    1.3, -0.59
CCOc1ccc(-c2nc(CSc3nnc(C)s3)cs2)cc1OC
    0.78, -1
CCOC(=O)c1ccc(NC(=O)NCc2ccccc2OC)cc1
    0.79, -0.08
O=C(CCCNS(=O)(=O)c1ccc(F)cc1)Nc1ccc(F)cc1
    1.1, -0.61
NC(=O)Nc1ccccc1C(=O)Nc1ccc2ccccc2c1
    1.4, -0.61
N=c1c2c3c(sc2ncn1CCN1CCOCC1)CCCCC3
    0.03, 0.79
COc1ccc(OCCn2c(C)c(/C=N/n3cnnc3)c3ccccc32)cc1
    0.04, -1.9
Cc1cc(NC(=O)CSc2nc3c(C)cccc3cc2C)no1
    2, 0.15
O=C(COc1c(Br)cc(Br)cc1Br)N/N=C/c1ccco1
    6.3*, 1.1*
O=C(CSc1ncnc2sc3c(c12)CCCC3)c1ccccc1
    3.3, 0.19
Cc1ccc(-n2c(SCC(=O)NCc3ccco3)nnc2-c2cccnc2)c(C)c1
    0.77, -1.1
CCc1nnc(NC(=O)C23CC4CC(CC(C4)C2)C3)s1
    0.02, -1.7
COc1ccccc1C(=O)NC(=S)N1CCc2ccccc21
    1, -1.6
COc1ccc(OC)c(NC(=O)CSc2nc3cccnc3n2C)c1
    0.02, -1.3
CC(C)(C)CN1CCC(Oc2cccc(C(=O)NCCCOc3cccnc3)c2)CC1
    0.38, 1.8
Cc1cccc(N2CCN(C(=O)CS(=O)(=O)Cc3nc(-c4ccccc4F)oc3C)CC2C)c1 (configuration not stated)
    0.03, 2.8
O=C(Nc1cc(C(F)(F)F)ccc1F)C1CCCCC1
    0.53, 0.99
Clc1ccc(-n2nnc(-c3nccs3)n2)cc1Cl
    0.77, -0.23
CCCCn1nc2cc(C(=O)NCc3ccc(C(F)(F)F)cc3C(F)(F)F)ccc2c1OCC
    0.28, -0.49
O=S(=O)(Nc1cccc2c1ccc1cccn12)c1cccs1
    0.38, -0.59
Cc1nc(CC(=O)N2CCN(S(=O)(=O)c3ccccc3C#N)CC2)cs1
    1.6, -1.5
Cc1ccc(OCCC(=O)OC(C)C(=O)NC2CC2)cc1 (configuration not stated)
    1.8, 1.7
COc1ccc(NS(=O)(=O)c2cccc(Cl)c2Cl)cc1S(=O)(=O)N1CCCCC1
    2.5, -0.01

Carrying on.
Below each SMILES – KCNQ2 pot, KCNQ2 pot baseline
O=C(O)c1cccc(O)c1O
    0.35, 1.1
CCCCN(Cc1cc2ccccc2[nH]c1=O)S(=O)(=O)c1ccc(C)cc1
    2, 2
CC1CC(C)CN(CCCNC(=O)Cn2ncc3c(=O)oc4ccccc4c32)C1 (configuration not stated)
    1.2, -0.78
CC(C)c1ccc(/C=N/NC(=O)c2nnn(-c3nonc3N)c2CSC2=NCCS2)cc1
    0.07, -1.2
C/C(=C\C(=O)c1ccccc1)Nc1ccc(Cl)c(Br)c1
    0.64, 1.9
O=C(CSCc1ccc([N+](=O)[O-])cc1)Nc1ccccc1C(=O)O
    0.78, 1.6
CCCC(=O)c1ccc(N2CCN(C(=O)c3ccc(Br)cc3)CC2)c(F)c1
    0.53, -0.63
O=C(Nc1ccccc1C(=O)Nc1ccccn1)c1cc(F)c(F)cc1Cl
    0.28, -0.87
Cc1cccc(OCc2nnc(SCc3nc4cc(C(F)(F)F)ccc4c(=O)[nH]3)o2)c1
    3, -1.6
CCOC(=O)C1CCCN(C(=O)c2ccc([N+](=O)[O-])c(C)c2)C1 (configuration not stated)
    1.2, 1.2
CCn1c(SCC(=O)Nc2ccccc2OC)nc2ccccc2c1=O
    0.54, 0.2
COc1cc(-c2nc3ccccn3c2N)ccc1O
    0.88, 0.06
Cn1cnc2nc3n(c2c1=O)CCC3
    0.29, 0.87
Cc1ccc(C)c(CNS(=O)(=O)c2c(C)[nH]c(C)c2C(=O)N2CCCC2)c1
    1.3, 0.82
CCC(CC)C(=O)Nc1cc([N+](=O)[O-])ccc1F
    0.89, 1.3
COc1ccc(CCNC(=O)c2cc3c(=O)n4ccccc4nc3n(CCCN3CCOCC3)c2=N)cc1
    1.3, 0.03
COc1ccc(NC(=O)CSc2nc3ccccc3c(=O)n2CCNC(C)=O)c(OC)c1
    0.58, 1.4
CCn1c(SCc2nc3sc(C(=O)O)c(C)c3c(=O)[nH]2)nnc1-c1ccc(Cl)cc1
    0.3, 0.04
N#CCc1ccc(C(=O)c2ccccc2F)s1
    0.45, 0.16
O=C(CN1C(=O)c2ccccc2S1(=O)=O)NCc1ccc(F)cc1
    2.3, -2.5
CCOC(=O)N1CCC(NC(=O)c2ccc(CS(=O)c3cccc(C)c3)o2)CC1 (configuration not stated)
    0.01, 2
CC(C)CNC(=O)c1ccccc1NC(=O)CN(c1ccc2c(c1)OCCO2)S(C)(=O)=O
    0.37, 0.02
Nc1nc(SCc2ccccc2)c2[nH]cnc2n1
    0.6, 0.64
N/C(=N\OC(=O)c1ccc2c(c1)OCO2)c1cccnc1
    1.2, 0.05
CC(=O)c1c(C)[nH]c(C(=O)OCC(=O)Nc2sc3c(c2C#N)CCCC3)c1C
    1.1, -0.09
COc1ccccc1NC(=O)CCc1nc(-c2cccs2)no1
    0.47, -0.93
Cc1cc(NC(=O)C2CC(c3ccc(Cl)cc3)=NO2)no1 (configuration not stated)
    0.91, -0.59
CN(CCOC(=O)CN1C(=O)c2ccccc2C1=O)C1=NS(=O)(=O)c2ccccc21
    0.4, -1.1
Cc1cccc(NC(=O)c2ccc(NC(=O)c3ccccc3Br)cc2)c1
    0.36, -0.83
CC(C)COc1ccc(-c2nnn(CC(=O)N3CCCC3)n2)cc1
    1, 0.84
Cc1ccc(NCC(=O)N/N=C/c2ccc(OC(=O)c3ccco3)cc2)cc1
    0.53, -1.1
CN(C)c1ccc(C(=O)OCC(=O)NC2CCCCCC2)cc1
    0.08, -0.28
O=C(N/N=C/c1cn(-c2cccs2)nc1-c1ccccc1)c1ccccc1Br
    0.02, 0.27
O=C(NCN1CCCCC1)c1cccnc1
    0.06, 2.5
N/C(Cc1ccc(Cl)cc1Cl)=N\OC(=O)Cc1ccccc1
    1.9, -0.96
COc1ccc(Cl)cc1NC(=O)CN1C(=O)NC2(CCCC2)C1=O
    2.1, 0.49
CC(C)NC(=O)CSc1nnc(-c2ccco2)n1N
    0.01, -0.04
COc1ccc(Nc2nnc(SCC(=O)N3CCCC3)s2)cc1
    1.6, 4.6
CC(C)CNC(=S)N1CCN(C)CC1
    1.1, 0.17
COC(=O)CSc1nnc(CNS(=O)(=O)c2ccc(Cl)cc2)n1C
    1.4, -3.4

Gathered by group: those above with a nitro group on carbon (4)
Below each SMILES – KCNQ2 pot, KCNQ2 pot baseline
CCCC(=O)NCCc1nc2cc([N+](=O)[O-])ccc2n1C
    2, -0.14
O=C(CSCc1ccc([N+](=O)[O-])cc1)Nc1ccccc1C(=O)O
    0.78, 1.6
CCOC(=O)C1CCCN(C(=O)c2ccc([N+](=O)[O-])c(C)c2)C1 (configuration not stated)
    1.2, 1.2
CCC(CC)C(=O)Nc1cc([N+](=O)[O-])ccc1F
    0.89, 1.3

Continuation:
Below each SMILES – KCNQ2 pot, KCNQ2 pot baseline
CCC(CC)C(=O)NCCc1ccc(OC)c(OC)c1
    0.61, 0.64
CCc1ccc(C(=O)NNC(=S)Nc2ccc(S(N)(=O)=O)cc2)s1
    0.19, -0.21
CC(C)(C)OC(=O)N[C@@H](Cc1ccccc1)C(=O)N1CCC(C(=O)NCC(=O)O)CC1
    0.03, -1.6
COc1ccc(C(=O)Nc2ccc(C(=O)Nc3cccc(C)c3)cc2)cc1
    0.45, 0.33
CCCCC(=O)Nc1cccc(NC(=S)NC(=O)COc2ccccc2Cl)c1
    1.8, 0
CCCc1[nH]nc2c1C(C1CC=CCC1)C(C#N)=C(N)O2 (configuration not stated)
    0.01, -0.01
CC(=O)NS(=O)(=O)c1ccc(Nc2ccc([N+](=O)[O-])c3nonc23)cc1
    0.39, -0.99
CCOC(=O)c1cccc(NC(=O)c2ccc3c(c2)OCO3)c1
    1.7, 1.1
Cc1cc(C)n(CCC(=O)N/N=C/c2ccc(O)cc2O)n1
    0.01, 0.69
Nc1c(-c2ccccc2)cnn1-c1cccc(C(F)(F)F)c1
    1.9, -1.4
Cc1nc2cc(C(=O)N3c4ccccc4CC3C)ccc2s1 (configuration not stated)
    0.02, -0.76
O=C(Cc1c(F)cccc1Cl)Nc1ncc([N+](=O)[O-])s1
    1, 1.1
COCCn1c(C(C)C)nc2ccccc21
    0.16, -0.59
Cc1ccc(-c2csc3nc4cc(C(N)=O)ccc4c(=O)n23)cc1
    1.4, -0.02
COc1cc(NC(=O)CN(C)C2CCCCC2)c(C)cc1[N+](=O)[O-]
    0.56, 0.38
CCCNC(=O)c1ccccc1SCc1c(C)noc1C
    1.8, 0.6
C/C(=N\NC(N)=S)C12CC3CC(CC(C3)C1)C2
    1.7, -0.3
COc1ccc(OC)c(S(=O)(=O)Nc2cnc3ccccc3c2)c1
    0.52, 2.4
COC(=O)c1cc(Br)c(=O)n(CC(C)C)c1
    0.86, -1.5
Cc1c(Cl)cccc1NC(=O)CCC(=O)c1cccs1
    0.12, 0.83
O=C(COc1ccc2c3c(c(=O)oc2c1)CCC3)N1CCN(c2ccc(F)cc2)CC1
    1.3, 0.61
O=C(Nc1ncc(Cc2cccc([N+](=O)[O-])c2)s1)c1ccco1
    0.9, -0.02
CCN1C(=O)CSC1=Nc1ccccc1Cl
    0.88, -0.1
CCCCN(C(=O)Cc1coc2cc(C)c(C)cc12)c1c(N)n(Cc2ccccc2)c(=O)[nH]c1=O
    0.48, 0.59
COc1ccc(-c2cc3nc(C)c(CCC(=O)NCc4ccco4)c(C)n3n2)c(OC)c1
    0.36, -0.42
CC(C)Cn1nnc2c(=O)oc3ccccc3c21
    0.61, -0.27
